Assay outcomes (PubChem BioAssay)
Mtb bLac sens: beta-lactam sensitization of Mtb H37Rv | M. tuberculosis H37Rv growth with meropenem, percent inhibition; hits of this screen are not shown here | hit rate 0.27% among 330,000 | inhibition, % at 25 µM;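 active means about 74% or more and at least 40 points above the plate without the antibiotic, then above 30% in a dose series; inconclusive means first-round hits that could not be retested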;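 further: growth measured after seven days incubation then overnight dye step; 0% = bacteria only wells and 100% = bacteria with antibiotic; twin plates without the antibiotic show which effects depend on it; some results filed as inactive read as strong as hits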
RecA intein inh: inhibitors of M. tuberculosis RecA intein splicing; cell-free RecA intein splicing, fluorescence; inhibition, %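 (about 9 µM by stock and volumes)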; P9WHJ3; hit rate 0.75% among 290,000; in the data active means inhibition above about 30%; inconclusive means no clear call, values can overlap the other calls;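 further: 0% = vehicle wells and 100% = reference inhibitor control wells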
Target sequence (P9WHJ3 whole entry, looked up): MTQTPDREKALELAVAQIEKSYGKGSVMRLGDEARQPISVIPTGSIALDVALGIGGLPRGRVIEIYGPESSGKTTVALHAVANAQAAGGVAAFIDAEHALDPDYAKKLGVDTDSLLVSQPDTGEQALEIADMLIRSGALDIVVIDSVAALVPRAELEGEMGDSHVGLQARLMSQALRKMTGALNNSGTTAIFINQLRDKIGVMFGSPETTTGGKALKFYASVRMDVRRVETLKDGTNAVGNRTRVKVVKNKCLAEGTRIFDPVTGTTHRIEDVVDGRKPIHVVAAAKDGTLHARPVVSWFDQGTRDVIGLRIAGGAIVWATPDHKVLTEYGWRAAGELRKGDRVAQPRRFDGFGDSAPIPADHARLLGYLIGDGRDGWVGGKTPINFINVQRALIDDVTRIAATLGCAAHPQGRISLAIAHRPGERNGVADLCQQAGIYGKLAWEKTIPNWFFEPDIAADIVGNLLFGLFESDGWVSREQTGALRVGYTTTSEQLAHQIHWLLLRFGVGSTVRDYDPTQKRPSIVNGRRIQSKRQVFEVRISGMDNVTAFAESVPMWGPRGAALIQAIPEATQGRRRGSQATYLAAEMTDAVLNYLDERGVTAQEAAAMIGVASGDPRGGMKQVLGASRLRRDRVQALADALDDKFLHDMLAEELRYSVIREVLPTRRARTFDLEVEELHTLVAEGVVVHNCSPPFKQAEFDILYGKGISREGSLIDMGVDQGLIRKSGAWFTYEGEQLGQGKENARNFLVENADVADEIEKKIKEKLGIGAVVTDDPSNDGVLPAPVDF
Arbovirus inh: antivirals against arbovirus infection; arbovirus infection cell-based antiviral screen; inhibition, % at 10 µM; hit rate 0.37% among 200,000;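 active means inhibition from about 30%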;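 further: bluetongue infection of BSR cells; cell survival read as ATP light after 72 h; 0% = infected wells without compound and 100% = uninfected wells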
YopH inh: blocks Yersinia enterocolitica YopH tyrosine phosphatase; fluorescence Ex485/Em525; inhibition, %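 (about 10 µM by stock and volumes)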; hit rate 0.16% among 140,000;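 active means inhibition of 50% or more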;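 further: controls were vehicle for no effect and minimum signal wells for full effect; inactives centre near -20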
Mtb H37Rv: M. tuberculosis H37Rv growth inhibitors, H37Rv strain (AID 1626). M. tuberculosis H37Rv growth inhibition; higher % means a stronger effect. inhibition, % at 10 µM; hits with a dose series show IC50 in µM. hit rate 0.95% among 220,000;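 active means confirmed in a dose series; inconclusive means inhibition above 80% but not taken into the dose series; inactive means below 80% or under 30% at every dose of the series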;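 further: bacteria incubated seven days before Alamar blue readout; 0% = bacteria only wells and 100% = bacteria with antibiotic wells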
Arbovirus inh repeat: further read-out of Arbovirus inh, marked with its call; inhibition, %; measured here: 10K subset replicate screen; many hits read low in the repeat;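 first of two repeat runs on a subset; 0% = infected and 100% = uninfected wells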
Active calls of the source: *; ? = inconclusive; nt = not tested or not shown. Only part of the results is shown; the hit share may differ from the screen's.

SMILES	Mtb bLac sens	RecA intein inh	Arbovirus inh	YopH inh	Mtb H37Rv	others
Oc1ccc(-c2cn3cc(C(F)(F)F)ccc3n2)cc1	-4	2.0	-27	-13	6%
CC(CCc1ccccc1)NC(=O)CN1CCN(Cc2ccccc2)C1=O (centres undefined)	-1	2.3	-4	-21	-1%
CC(=O)Nc1c(C(N)=O)oc2ccc(Cl)cc12	2	-1.2	nt	nt	6%
CC(C)(C)c1ccc(N2C(=O)Cc3c2nc(N)c(C#N)c3N)cc1	10	5.0	-5	-16	-2%
Cc1ccc(NC(=O)OCc2cccs2)cc1	6	2.2	nt	nt	nt
COc1ccc(C(=O)NNC(=O)CSc2nnc(-c3cccnc3)o2)cc1	-10	0.5	-2	nt	-3%
COC(=O)c1cccc(NC(=S)N2CCN(C)CC2)c1	-4	-5.2	nt	nt	nt
CCOC(=O)c1sc2nc(N3CCOCC3)c3c(c2c1N)CCN(Cc1ccccc1)C3	9	4.3	-3	-49	5%
CCN(CC)S(=O)(=O)c1cccc(-c2nnc(SCc3nnc(-c4ccccc4)o3)n2C)c1	-6	-5.5	4	-11	7%
O=C(Nc1ccc(OC(F)(F)F)cc1)c1ccc2c(c1)no[n+]2[O-]	100	5.5	nt	nt	nt
CC(=O)Oc1cc2c(C(C)=O)coc2c2ccccc12	-3	nt	3	30	3%
COc1ccc(/C=C(/NC(=O)c2cccc([N+](=O)[O-])c2)C(=O)O)cc1	-5	0.6	1	nt	-8%
Cc1cc(Cl)c(OCCCN2CCCCC2)c(Br)c1	-2	11	-22	-14	4%
CCCCCCSc1ccc([C@H]2N[C@@](CC(C)C)(C(=O)OC)[C@H]3C(=O)N(C)C(=O)[C@@H]23)cc1OC	-12	3.5	nt	nt	nt
CC(=O)c1ccc(NC(=O)/C(=C\c2ccccc2)NC(=O)c2ccco2)cc1	-2	-0.2	-5	nt	-3%
Cc1ccc(O)c(C2=NNC(c3ccc(Cl)cc3)C2)c1 (centres undefined)	-10	4.3	nt	nt	7%
CC(C)(O)C(=O)NN(C(=O)c1ccccc1)c1cccc(Br)c1	-8	1.8	2	-17	-4%
O=C(c1cccc(Br)c1)N1CCN(C2=NS(=O)(=O)c3ccccc32)CC1	?	2.2	nt	nt	nt
COc1cc(OC)c(NS(=O)(=O)c2c(C)[nH]c(=O)[nH]c2=O)cc1Cl	-2	-3.6	nt	nt	nt
CCN(CC)CCN1C(=O)C(O)=C(C(=O)c2sc(C)nc2C)C1c1cccnc1 (centres undefined)	-2	0.6	4	-22	-4%
CC(=O)N1CCN(c2ccccc2NC(=O)Cc2ccc(Cl)cc2)CC1	-6	-0.3	2	nt	0%
O=C(CN1CCN(Cc2ccccc2)CC1)Nc1ccc(-n2cnnn2)cc1	-5	-2.1	-2	nt	-2%
CC(C)NC(=O)c1cccc(Cn2cc(Cl)cn2)c1	-2	-0.1	0	-28	-3%
COc1ccc(CCn2c(-c3ccc(C(C)(C)C)cc3)n[nH]c2=S)cc1OC	2	-1.2	10	nt	5%
Cc1cccc(N2CCC(N=CN(C)C)=N2)c1	77	-6.2	-27	nt	68%
CCCn1nnc(NC(=O)c2cc(Br)cc(Br)c2OC)n1	15	-3.0	12	-24	-10%
CCC(=O)Nc1cc2nn(-c3ccc(OC)cc3)nc2cc1C	1	4.7	-6	15	-5%
COc1ccccc1CNC(=O)c1ccc(SC)cc1OC	nt	2.4	-20	-22	8%
Cc1ccc(Cn2c(SCC(=O)NCC3CCCO3)nc3c2c(=O)n(C)c(=O)n3C)cc1 (centres undefined)	0	-1.6	23	nt	-2%
Cc1ccc(C(=O)COC(=O)c2cc(=O)[nH]c3ccccc23)cc1	1	0.0	-3	nt	-3%
C=CCNc1nnc(C)c2ccccc12	-2	-1.2	-2	-46	-7%
CCOc1ccccc1OCC(=O)NCc1ccco1	-3	1.4	-5	-22	-8%
Cn1c(SCC(=O)O)nc2ccccc2c1=O	13	1.6	-5	-7	3%
COc1ccc2c(c1)C(=O)Cc1ccccc1O2	?	-1.8	nt	nt	nt
CCCCC1(C)NC(=O)c2c(C)sc(C(=O)OCC)c2N1 (centres undefined)	-1	3.9	-3	2	3%
COc1cc(OC)cc(C(=O)NCCN2C(=O)S/C(=C\c3cccs3)C2=O)c1	8	-0.4	2	nt	50%
CC(C)(C)NC(=O)NC(=O)COC(=O)CNC(=O)C1CCCCC1	-4	-6.0	4	nt	-1%
COc1ccc(-c2nn(CCC#N)cc2C(=O)Nc2ccccc2Br)cc1[N+](=O)[O-]	-11	0.7	nt	nt	4%
CC(=O)NC1CSCC1OC(C)=O (centres undefined)	-5	1.9	2	-49	-4%
Cc1nc(S(=O)(=O)Cc2ccccc2Cl)nc2c1CCC2	-6	0.6	-4	nt	-2%
COc1ccc(/C=C(\C#N)C(=O)OCC(=O)N(C)C2CCS(=O)(=O)C2)cc1 (centres undefined)	-6	-2.1	nt	nt	nt
O=S(=O)(NCc1cn2ccccc2n1)c1cccs1	-7	-2.8	nt	nt	1%
COc1ccc(CNC(=O)CN(c2cc(C)cc(C)c2)S(=O)(=O)c2c(C)noc2C)cc1	6	nt	9	-46	-5%	Arbovirus inh repeat=-3
O=C(Nc1cccc(F)c1)c1sc(Cl)nc1-c1ccccc1	0	3.5	6	-35	9%
CC1(C)C2CC=C(CN3CCC(O)CC3)C1C2 (centres undefined)	-9	-0.4	-5	0	-4%
CC(C)(C)c1ccc(Cn2nnc3c(=O)[nH]c(C4CCCN(C(=O)Cc5cccs5)C4)nc32)cc1 (centres undefined)	98	8.6	-26	-50	18%
Cc1ccc(S(=O)(=O)N(C)c2ccc(N)cc2)cc1	-16	-0.7	-4	-13	-1%
Cc1cccc(NC(=O)CSc2cc(C)c(C#N)c3nc4ccccc4n23)c1	2	-9.0	nt	nt	nt
Cc1ccc(S(=O)(=O)/N=C(/c2ccc(F)cc2)N2CCCC2)cc1	-3	-3.0	-6	nt	-3%
Cc1ccc(SCCC(=O)NC2CC2)cc1	5	-2.1	3	nt	0%
C=CCOc1c(Br)cc(CNc2ccc3[nH]c(=O)[nH]c3c2)cc1OCC	6	-3.1	3	nt	14%
CCOC(=O)c1sc2nc(C(C)C)c3c(c2c1N)CC(C)(C)OC3	63	0.7	-4	-11	-12%
CCCCN=CC1=C(O)C(C(=O)OC)C(C)(C)CC1=O (centres undefined)	-3	1.3	4	-46	-8%	Arbovirus inh repeat=2
CC1=C(C(=O)Nc2ccc(F)cc2)C(c2cccc(C)c2)n2nc(CCCO)nc2N1 (centres undefined)	-2	2.4	5	-33	-2%	Arbovirus inh repeat=10
O=S(=O)(Nc1ccc(S(=O)(=O)Nc2ccccc2)cc1)c1ccccc1	10	4.5	14	-28	-3%
Cc1noc(C(=O)NCc2ccc(F)cc2)c1Cl	6	-1.4	3	-38	4%
Cc1ccc(-c2nnc(N3CCOCC3)c3ccccc23)cc1S(N)(=O)=O	1	1.4	nt	nt	nt
COc1cc2c(cc1OC)C(SC)=NC1(CCCC1)C2	0	nt	-31	nt	-2%
Cc1cc(-c2nnc(CCC(=O)N(C)Cc3ccsc3)o2)no1	9	-0.2	2	nt	-2%
O=C(COc1ccccc1)NNC(=S)NC(=O)c1ccccc1	66	-0.8	-16	nt	?

(continued)
SMILES	Mtb bLac sens	RecA intein inh	Arbovirus inh	YopH inh	Mtb H37Rv	others
COc1ccc(C(=O)c2nc3c(n2O)CCCC3)cc1OC	-6	-5.6	3	-3	5%
N#CC1=C2Nc3ccccc3N2C(=O)NC1(c1ccccc1)C(F)(F)F (centres undefined)	5	-2.7	-1	0	4%
O=C(COC(=O)c1cc(S(=O)(=O)N2CCCCC2)ccc1N1CCOCC1)c1ccccc1	1	2.6	nt	nt	nt
O=C(Nc1ccccc1C(=O)O)c1cccc(S(=O)(=O)Nc2ccc(Br)cc2)c1	1	4.1	nt	nt	nt
CCN(CC)CCOC(c1ccccc1)c1ccc(C)cc1 (centres undefined)	-7	0.6	-15	-11	1%
NC(=O)c1ccc[n+](CCC[n+]2cccc(C(N)=O)c2)c1	-4	0.7	8	nt	3%
CC(C(=O)NC1CCCC1)N(Cc1ccco1)C(=O)c1snc(C(=O)NC2CCCC2)c1N (centres undefined)	-11	-6.6	0	-47	12%
Cc1nc(SCC(=O)N2CC(=O)Nc3ccccc32)c2c(C)c(C)sc2n1	0	7.0	3	-33	6%
COC(=O)c1ccc(C2C(Oc3ccc(OC)cc3)C(=O)N2CCc2ccc(OC)c(OC)c2)cc1 (centres undefined)	-2	-3.7	-5	-22	-2%
CCOc1cc(N2CCOCC2)c(OCC)cc1NC(=O)Cc1ccc(OC)c(OC)c1	1	-6.4	-4	-15	nt
O=C(Nc1nnc(-c2ccccc2)o1)Nc1ccccc1Cl	58	0.7	2	21	nt	Arbovirus inh repeat=3
O=C(NNc1nc(-c2ccccc2)cs1)c1ccccc1	99	2.9	-27	-48	nt
CC(=O)Nc1ccc(NC(=O)c2ccccc2N(Cc2ccccc2)S(C)(=O)=O)cc1	2	-0.8	nt	nt	nt
Cc1ccc(C2C(N)C(=O)N2c2ccc(C)cc2)cc1 (centres undefined)	?	-0.9	nt	nt	nt
COC(=O)C1=C(c2cc3ccccc3s2)C[C@@H]2CC[C@H]1N2C(=O)NCc1ccco1	-2	8.4	nt	nt	1%
COc1ccc(C(=O)NC(Nc2ccccc2)C(Cl)(Cl)Cl)cc1 (centres undefined)	-11	6.6	7	4	-3%
CSc1ccc(S(=O)(=O)NCC(=O)OCC(=O)N(C)C2CCCCC2)cc1[N+](=O)[O-]	-2	-2.2	nt	nt	nt

Entries listed so far with an aryl thioether with sulfur outside any ring, in the order listed:
SMILES	Mtb bLac sens	RecA intein inh	Arbovirus inh	YopH inh	Mtb H37Rv	others
COc1ccc(C(=O)NNC(=O)CSc2nnc(-c3cccnc3)o2)cc1	-10	0.5	-2	nt	-3%
CCN(CC)S(=O)(=O)c1cccc(-c2nnc(SCc3nnc(-c4ccccc4)o3)n2C)c1	-6	-5.5	4	-11	7%
CCCCCCSc1ccc([C@H]2N[C@@](CC(C)C)(C(=O)OC)[C@H]3C(=O)N(C)C(=O)[C@@H]23)cc1OC	-12	3.5	nt	nt	nt
COc1ccccc1CNC(=O)c1ccc(SC)cc1OC	nt	2.4	-20	-22	8%
Cc1ccc(Cn2c(SCC(=O)NCC3CCCO3)nc3c2c(=O)n(C)c(=O)n3C)cc1 (centres undefined)	0	-1.6	23	nt	-2%
Cn1c(SCC(=O)O)nc2ccccc2c1=O	13	1.6	-5	-7	3%
Cc1cccc(NC(=O)CSc2cc(C)c(C#N)c3nc4ccccc4n23)c1	2	-9.0	nt	nt	nt
Cc1ccc(SCCC(=O)NC2CC2)cc1	5	-2.1	3	nt	0%
Cc1nc(SCC(=O)N2CC(=O)Nc3ccccc32)c2c(C)c(C)sc2n1	0	7.0	3	-33	6%
CSc1ccc(S(=O)(=O)NCC(=O)OCC(=O)N(C)C2CCCCC2)cc1[N+](=O)[O-]	-2	-2.2	nt	nt	nt
